Six1-Eya2 inh: qHTS Assay for Inhibitors of the Six1/Eya2 Interaction; Homeobox protein SIX1 (Homo sapiens) + Protein phosphatase EYA2 (Homo sapiens), …; AID 651725, 2012; hit rate 0.56% among 360,000; activity change, % (test concentration not listed); AlphaScreen GST-Six1/His-Eya2 binding, biochemical; active compounds read low; control for the full effect not named in the record; in the data active = activity change below about -65%; inconclusive = about -30% to -65%; inactive = above about -30%; further: on the % scale 0 is the no-effect control and ±100 the full control effect
Target sequence (O00167 whole entry, looked up): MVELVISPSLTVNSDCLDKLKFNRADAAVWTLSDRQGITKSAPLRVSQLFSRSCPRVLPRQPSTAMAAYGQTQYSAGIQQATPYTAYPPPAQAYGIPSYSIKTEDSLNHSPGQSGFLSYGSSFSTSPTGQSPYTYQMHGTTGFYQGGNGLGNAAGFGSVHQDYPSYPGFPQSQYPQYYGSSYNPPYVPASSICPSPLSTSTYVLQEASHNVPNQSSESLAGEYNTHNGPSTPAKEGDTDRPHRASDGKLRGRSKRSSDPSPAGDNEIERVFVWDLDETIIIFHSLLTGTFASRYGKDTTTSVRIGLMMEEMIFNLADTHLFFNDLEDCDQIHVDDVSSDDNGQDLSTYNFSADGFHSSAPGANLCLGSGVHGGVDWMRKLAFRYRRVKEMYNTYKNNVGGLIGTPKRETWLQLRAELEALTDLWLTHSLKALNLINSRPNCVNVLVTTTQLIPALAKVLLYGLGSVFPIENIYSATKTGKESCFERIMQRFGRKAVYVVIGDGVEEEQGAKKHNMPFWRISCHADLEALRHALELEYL
Target sequence (Q15475 whole entry, looked up): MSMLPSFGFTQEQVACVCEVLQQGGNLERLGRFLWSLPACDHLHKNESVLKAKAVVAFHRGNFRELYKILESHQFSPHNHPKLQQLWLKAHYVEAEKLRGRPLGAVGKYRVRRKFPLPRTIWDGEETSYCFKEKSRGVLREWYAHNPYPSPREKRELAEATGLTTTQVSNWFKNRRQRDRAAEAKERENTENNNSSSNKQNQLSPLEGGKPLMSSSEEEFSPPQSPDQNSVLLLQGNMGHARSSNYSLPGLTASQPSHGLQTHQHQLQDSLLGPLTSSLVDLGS
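Compounds are tested against tagged Six1 and Eya2 proteins bridged by glutathione donor and nickel acceptor beads; after a one-hour incubation at 37 °C without light, AlphaScreen emission is recorded.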
CtBP-E1A blk: qHTS Assay for Inhibitors of the CtBP/E1A Interaction; activity change, % (no concentration beside the values); AlphaScreen GST-E1A/His-CtBP binding, 1536-well; active compounds read low; control for the full effect not named in the record; CtBP / adenovirus E1A interaction (AlphaScreen); AID 651724, 2012; hit rate 0.49% among 340,000; in the data active means activity change below about -65%; inconclusive means about -30% to -65%; inactive means above about -30%; further: on the % scale 0 is the no-effect control and ±100 the full control effect
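Homogeneous bead-based format: GST-tagged E1A captured on glutathione donor beads, His-tagged CtBP on nickel acceptor beads; compounds precede bead addition by 2 h at 37 °C.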
TRPML1 agonist: qHTS for Agonists of the Human Mucolipin Transient Receptor Potential 1 (TRPML1); Mucolipin-1 (Homo sapiens), Q9GZU1; TRPML1-expressing cells, Ca2+ dye fluorescence, FDSS; host cell line not named in the record; reference of the full effect not given here; activation, % (no concentration beside the values); hit rate 0.12% among 410,000; in the data active = activation above about 50%; inconclusive = about 30% to 50%; inactive = below about 30%; further: 0% is about no effect; the text of the record puts the active cut at 80%
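In this qHTS format, compounds were pin-transferred onto Ca8-dye-loaded TRPML1-DL cells induced with Tet overnight, and intracellular Ca2+ fluorescence was recorded kinetically for 110 s after a 10 s baseline. A subsequent 4uM final 54-4 (EC80) addition followed by a second 110 s read served as the antagonist phase.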
D2 potentiator: Beta-Arrestin HTS for Positive Allosteric Modulators of the Human D2 Dopamine Receptor: Potentiators; D(2) dopamine receptor (Homo sapiens), P14416; DiscoveRx D2 beta-arrestin cells, luminescence, 90 min; 100% = 57 uM dopamine signal; potentiation, % (test concentration not listed); hit rate 0.23% among 360,000; AID 624464, 2012; active = potentiation of 50% or more; inconclusive = 30% to 50%; inactive = 30% or less;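 further: compound concentration not given in the record; tested on top of an EC20 dose of dopamine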
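D2 cells co-treated with compound plus 50 nM dopamine (EC20) for 90 min at 37 deg C to detect potentiation. Beta-arrestin recruitment was read as enzyme-fragment luminescence after 1 h at ambient temperature. Full response was set by 57 uM dopamine.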
TRPV1 potentiator: HTS Assay for Compounds that Act as Potentiators of the Vanilloid Receptor 1. TRPV1-expressing cells, Fluo-8 calcium influx, capsaicin EC20 potentiation; host cell line not named in the record; control for the full effect not named in the record. potentiation, % at 8.33 µM. hit rate 0.02% among 320,000; active means potentiation above 80%; inconclusive means 30% to 80%; inactive means below 30%; further: 0% is about no effect
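Fluo-8 calcium influx in TRPV1-expressing cells, kinetic read (ex 480/em 520 nm). Compound added and read 3 min for agonist activity, followed by capsaicin at EC20 final and 2 min further read for enhancement.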
TRPML1 blocker: qHTS for Inhibitors of the Human Mucolipin Transient Receptor Potential 1 (TRPML1). AID 624415, 2012. activity change, negative = inhibition, % (no concentration beside the values). TRPML1-inducible cells, Ca2+ dye fluorescence, FDSS; active compounds read low; inhibition of EC80 agonist-evoked calcium signal. hit rate 0.02% among 390,000. Mucolipin-1 (Homo sapiens), Q9GZU1; in the data active means activity change below about -50%; inconclusive means about -30% to -50%; inactive means above about -30%;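 further: stimulus is agonist 54-4 at its EC80 concentration; on the % scale 0 is the no-effect control and ±100 the full control effect; compound concentration not given in the record; the text of the record puts the active cut at -80%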
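Tet-induced TRPML1-DL cells loaded with Ca8 no-wash calcium dye were read kinetically on FDSS. Compound addition was followed by EC80 agonist 54-4 (4 uM final); inhibition was read over 110 s.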
Starred values were filed as active, the others as inactive; u = inconclusive; x = no result given; & = joins results of further samples.

SMILES	Six1-Eya2 inh	CtBP-E1A blk	TRPML1 agonist	D2 potentiator	TRPV1 potentiator	TRPML1 blocker
CC(=O)c1cccc(NC(=O)c2ccc(NS(=O)(=O)c3c(C)noc3C)cc2)c1	-20	-2	-0.5	-14	4	2
C[C@@H]1CN([C@H](C)CO)C(=O)CCCn2nncc2CO[C@H]1CN(C)S(=O)(=O)c1ccc(Oc2ccccc2)nc1	6	3	-0.4	4	x	0
O=C(CCC(=O)N1CCOc2ccc(Cl)cc21)NCc1ccccc1	-1	0	-0.8	-11	22	1
O=C(Nc1nc(-c2cccc3ccccc23)cs1)c1ccc2c(c1)S(=O)(=O)c1ccccc1C2=O	5	-2	0.0	0	-8	4
Cc1ccccc1NC(=O)CSCc1nc(N)nc(Nc2ccccc2C)n1	-1	-11	0.0	-6	-1	-4
CSc1ccc(S(=O)(=O)NCc2ccc(Cl)cc2)cc1	3	11	1.6	1	x	-11
NC(=O)c1cc([N+](=O)[O-])ccc1NCc1ccccn1	-13	-8	-0.9	-43	2	1
C=CCN1C(=O)N(CC=C)c2cccc3cccc1c23	4	13	3.4	4	-11	-13
CC(=O)Nc1ccc(S(=O)(=O)NCC(=O)OCC(=O)N2CCc3ccccc32)cc1	-1	-3	-1.2	-13	0	-3
Cc1ccc(NC(=O)N(Cc2cccnc2)Cc2ccco2)cc1C	-1	-5	3.1	-11	10	49
COc1cc(Cl)c(C)cc1NC(=S)NN	3	0	-0.3	-12	-4	-11
COc1ccccc1C(=O)NC(=O)COC(=O)CN1C(=O)NC2(CCCCC2C)C1=O (configuration not stated)	2	4	1.5	-21	-2	23
COc1ccc(/C=C\c2cc(OC)c(OC)cc2CC[N+](C)(C)C)cc1OC	1	2	-0.5	-23	10	29
COc1ccccc1-c1cnn2c(NCc3ccccc3)cc(C)nc12	13	x	1.1	-3	7	-8
Nc1ccc(Cn2ccc3c4c(N)nc(N)nc4ccc32)cc1	-15	-12	0.6	-16	x	-3
Nn1c(SC/C=C/c2ccccc2)nnc1-c1ccncc1	15	-7	0.0	-13	-16	0
Cc1cc(N2CCCCCC2)nc2ccccc12	11	40	-0.9	-28	11	-3
NC(=O)COc1ccccc1C(=O)O	9	13	-0.2	1	17	3
CC(=O)NS(=O)(=O)c1ccc(NC(=O)/C=C/c2ccccc2)cc1	0	5	-0.4	-2	0	-10
Cc1cccc(NC(=O)c2nc[nH]c2C(=O)N2CCc3ccccc3C2)c1	4	5	1.2	-25	10	5
Cc1cc(C)cc(OCC(=O)NNC(=O)CC(C)c2ccccc2)c1 (configuration not stated)	0	3	-1.2	-9	x	3
CCOC(=O)N1CCN(C(=O)c2noc(C(C)C)c2[N+](=O)[O-])CC1	2	7	0.0	9	17	17
COC(C(=O)Nc1ccnn1C1CCN(Cc2cnn(C)c2)CC1)c1ccccc1 (configuration not stated)	4	3	0.1	-2	-12	26
COc1ccc(N=C2NC(=O)C(CC(=O)NCCc3ccc(OC)c(OC)c3)S2)cc1 (configuration not stated)	2	5	1.6	-2	8	9
CCC1CCCCN1C(=O)CSc1nc2c(cnn2-c2ccc(C)cc2)c(=O)[nH]1 (configuration not stated)	2	6	-0.1	-9	2	4
SMILES	Six1-Eya2 inh	CtBP-E1A blk	TRPML1 agonist	D2 potentiator	TRPV1 potentiator	TRPML1 blocker
COc1ccc(C(=O)N=c2sc3ccccc3n2C)cc1OC	3	-6	-0.6	-4	-5	4
C=CCn1c(=S)[nH]c2cc(C(=O)Nc3ccc(OC)c(OC)c3)ccc2c1=O	-20	-8	2.1	4	-5	3
Cn1c(=O)c2c(SCC(=O)Nc3nccs3)nc(C3CC3)nc2n(C)c1=O	5	7	0.8	1	-14	12
O=C1NC(c2ccc(Br)cc2)Oc2ccccc21 (configuration not stated)	2	x	-0.7	-33	u	18
CC1(C(=O)OCC(=O)Nc2cccc(S(=O)(=O)NC3=NCCCCC3)c2)CC1(Cl)Cl (configuration not stated)	0	-5	-0.3	1	10	15
CCOc1ccc(S(=O)(=O)N2CCOCC2)cc1NC(=O)CSCC(=O)Nc1ccc(OC)cc1	7	-13	1.9	-16	x	1
C[n+]1ccccc1/C=C/c1ccc([N+](=O)[O-])cc1	3	2	-0.1	-6	2	14
N#Cc1cc2c(nc1Cl)CCCC2	6	-5	0.5	-10	7	4
Cc1cc(Cl)ccc1Oc1nc(-c2ccc(F)cc2)ccc1C#N	3	7	-0.7	-9	-23	-3
CCCOC(=O)c1ccc(Nc2cc(C)nc3ncnn23)cc1	-12	-10	1.9	-2	-5	-11
Cc1cccc(C)c1OCC(O)CNC(C)c1ccccc1 (configuration not stated)	11	-3	-0.5	-14	6	29
COc1ccc(CNC(=O)CN2CCN(S(=O)(=O)c3cc(Br)ccc3Br)CC2)cc1OC	-5	-8	1.8	4	-5	-15
C=CCn1c(COc2cccc3cccnc23)nnc1SCC(=O)OC	0	7	0.0	-15	-1	25
Cn1cccc1Cc1nnc(SCC(=O)NCc2ccccc2)n1-c1ccc(F)cc1	-7	-7	0.1	-2	-3	-5
c1ccc(CSc2nnc3ccc(-c4ccncc4)nn23)nc1	0	1	x	4	-5	x
CCCCC(=O)NC(=S)NNC(=O)c1ccc(Cl)cc1Cl	-10	-1	-0.8	-31	u	15
C=CCN1C(=O)CS/C1=N/c1nccs1	0	12	0.8	-8	19	11
Cc1cc(=O)[nH]c(-c2cccs2)n1	-2	x	0.1	-1	-3	15
O=C(CSc1nc2ccccc2n1S(=O)(=O)c1ccccc1)N1CCCCC1	-3	7	0.0	-7	-22	0
COc1ccc(S(=O)(=O)Nc2c(C(=O)O)[nH]c3ccccc23)cc1OC	-13	0	-0.3	19	3	13
Cn1c(OCc2ccc3c(c2)OCO3)nc2c1c(=O)n(Cc1ccc(Cl)c(Cl)c1)c(=O)n2C	5	13	-0.3	3	7	2
Cn1c(SCC(=O)Nc2nc(C(C)(C)C)cs2)nnc1C1CC1	6	5	0.9	-2	6	-10
O=S(=O)(NCC(c1cccnc1)N1CCOCC1)c1ccc(Cl)cc1 (configuration not stated)	u	x	-0.6	0	20	-3
O=C(Nc1cccc(Cl)c1)Nc1ccnc(-c2cccnc2)n1	u	u	0.2	2	5	7
COC(=O)c1cc(OC)c(OC)cc1NC(=O)c1ccc(C)cc1	2	-16	1.5	3	-3	4
SMILES	Six1-Eya2 inh	CtBP-E1A blk	TRPML1 agonist	D2 potentiator	TRPV1 potentiator	TRPML1 blocker
O=C(O)CCn1ncc2ccccc2c1=O	5	4	-0.4	-7	0	0
CC(C)(C)n1nnnc1C(c1cccs1)N(Cc1ccc(Cl)cc1)CC1CCCO1 (configuration not stated)	-11	-12	66*	-14	-8	-18
COc1ccc(NC(=O)C23CCC(C2)C(C)(C)C3=O)cc1 (configuration not stated)	3	3	-0.4	0	-3	6
COc1cc(/C=C(\C#N)C(=O)Nc2cccnc2)ccc1OC(C)C	1	-2	-0.3	1	-7	4
CCOC(=O)c1[nH]c(C)c(C(=O)OCC(=O)N2CCc3ccccc32)c1C	2	9	0.7	-8	4	-6
O=S1(=O)N=C(N(CCO)/N=C/c2ccccc2F)c2ccccc21	u	u	1.1	9	6	2
COc1ccc(OC)c(/C=N/NC(=O)CN2CCSCC2)c1	0	9	0.0	-7	u	-17
CCCC(=O)Oc1ccc(N(C(=O)CCC)S(=O)(=O)c2cccc([N+](=O)[O-])c2)cc1	-24	-11	2.1	u	-2	17
CN(C)S(=O)(=O)c1cc(C(=O)Nc2ccccc2C(=O)NC2CC2)ccc1Cl	-1	1	-0.8	-1	-26	-8
O=C(C1CCCN(S(=O)(=O)c2cccc3nonc23)C1)N1CCN(c2cccc(Cl)c2)CC1 (configuration not stated)	-6	3	-0.5&-0.5	0	-3	-24&-11
CCc1nc2c(OCCOc3ccc(F)cc3)cccn2c1N(C=O)Cc1ccccc1	0	-6	-0.6	-10	x	x
CCOC(=O)c1cc(-c2ccc(Cl)cc2)nc2c1c(=O)[nH]c(=O)n2CCOC	-5	8	-1.1	4	6	-7
Cc1cc(=O)oc(C)c1C(=O)NCC1COc2ccccc2O1 (configuration not stated)	-1	-2	0.0	-6	-11	13
Cc1ccc(S(=O)(=O)N2CCOCC2)cc1NC(=O)c1cc2ccccc2oc1=O	-6	-17	0.8	-4	x	32
COc1ccc2cc3cc(C(=O)N4CC(C)CC(C)C4)oc3nc2c1 (configuration not stated)	-4	-3	-0.1	-4	u	-10
CN1CCN(c2ccc(NC(=O)c3ccc(-c4ccccc4F)o3)cc2)CC1	-24	u	-0.4	-7	-17	-9
CCCCN(C)CCCNC(=O)c1cc(=O)[nH]c2ccc(S(=O)(=O)N3CCCCC3C)cc12 (configuration not stated)	4	x	0.1	-10	7	-14
C=C(C)CC(Nc1ccc(OC)cc1)c1ccco1 (configuration not stated)	0	7	-0.7	-6	-18	-16
CSc1ccc(S(=O)(=O)N2CCC(C(=O)Nc3cccnc3)CC2)cc1	-5	-13	1.3	-4	-4	-2
COc1ccc(NS(=O)(=O)c2cc3c4c(c2)CCN4C(=O)CC3)cc1OC	0	3	0.1	1	-12	-13
c1ccc(-c2ccccc2OCCOCCN2CCc3ccccc3C2)cc1	3	11	1.2	-8	1	4
CC(C)C1/C(=N/O)CC(c2ccccc2)NC1c1ccccc1 (configuration not stated)	4	-11	2.6	15	8	-14
CN(c1ccccc1)S(=O)(=O)c1cccc(NC(=O)CCNC(=O)c2ccccc2)c1	-2	-1	0.5	-10	16	-12
O=[N+]([O-])c1ccc(Cl)c(/C=N/N2CCN(Cc3ccccc3)CC2)c1	4	2	-0.3	-3	2	-20
O=C(NCCc1c[nH]c2ccccc12)C(=O)NCC(c1ccco1)N1CCN(c2ccc(F)cc2)CC1 (configuration not stated)	2	-7	0.9	17	5	-10

Bioassay records deposited in PubChem BioAssay by National Center for Advancing Translational Sciences (NCATS).
